# Rango dissoc inh: inhibition of RanGTP-driven Rango-importin beta dissociation | Potency, µM (highest dose often 46.1 µM), for inactives: at the top dose activity change, negative = inhibition | Biochemical FRET Rango-importin beta, RanGTP-induced dissociation | actives 0.071% (n = 340,000) | O95149+P62826; active means falling FRET ratio curve, often poorly fitted, with flat reads before Ran was added; inconclusive means other falling curves, or compound fluorescence or quenching; inactive means flat or rising ratio curve;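 also: potency is read from the fitted curve at half-maximal effect; % of control where 0% means no effect; nearly all actives have a fitted effect of over 45% in size; -100% = wells without RanGTP and RCC1; the record marks most hits as doubtful in a second field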
#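 Recombinant Rango FRET biosensor (EYFP–snurportin 1 IBB–cerulean CFP10) at 0.1 uM premixed with 0.25 uM importin beta in PBS, 1 mM DTT, 0.02% Tween-20, 0.1% BSA. Compound added 5 min; RanGTP-RCC1 (0.6 uM Ran, 2 mM GTP, 0.2 uM RCC1) then triggers release, read at 45 min.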
# miR-21 reporter: miR-21 reporter, rising signal. 340,000 tested, under 10 active. Potency, µM (top dose mostly 38.3 µM), inactives show top-dose reporter change, positive = more light. AID 2288. HeLa miR-21 FLuc reporter, luciferase, 48 h; active = well fitted rising curve with a large enough effect; inconclusive = small, poorly fitted or top-dose-only effect; inactive = no such curve, though single readings can be large or run the other way;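 also: % of control where 0% means no effect; miR-21 action dims this reporter so a rising signal means less miR-21 action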
#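 Luminescence from a firefly luciferase reporter carrying a miR-21 binding site downstream, stably expressed under a CMV promoter in HeLa cells that make miR-21 endogenously, reports miRNA modulation after 48 h compound exposure up to approximately 40uM final.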
# GLA inh pH 4.5: blocks human alpha-galactosidase A at pH 4.5; P06280; purified enzyme, 4-MU-alpha-Gal fluorescence, pH 4.5; activity change, negative = inhibition, % at 105 µM; 230,000 tested, under 10 active; inconclusive = small, poorly fitted or top-dose-only inhibition, or a rising curve; inactive = flat fitted curve, though single readings scatter; no compound was filed as active;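 also: 0% = full activity with enzyme and -100% = basal without enzyme; dose as in the result columns while the protocol names 77 µM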
# Target sequence (P06280 whole entry, looked up): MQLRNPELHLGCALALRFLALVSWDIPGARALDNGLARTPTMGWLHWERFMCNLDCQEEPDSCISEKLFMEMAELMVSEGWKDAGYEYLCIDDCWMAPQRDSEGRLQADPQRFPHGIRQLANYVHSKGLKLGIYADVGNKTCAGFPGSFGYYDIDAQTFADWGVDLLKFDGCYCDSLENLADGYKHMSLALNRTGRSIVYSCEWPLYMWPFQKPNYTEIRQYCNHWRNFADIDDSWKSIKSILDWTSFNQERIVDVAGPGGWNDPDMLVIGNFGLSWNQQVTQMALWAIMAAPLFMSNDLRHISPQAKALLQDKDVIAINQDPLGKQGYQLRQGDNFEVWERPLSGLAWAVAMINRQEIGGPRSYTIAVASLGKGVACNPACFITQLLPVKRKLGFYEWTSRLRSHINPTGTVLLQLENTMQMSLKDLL
# Rango complex inh: Rango-importin beta binding inhibition. Q14974. Rango CFP/YFP FRET sensor + importin beta, 45 min. Potency, µM (doses to about 92.2 µM), for inactives: at the highest dose inhibition of complex formation. actives 0.031% (n = 340,000); active = rising FRET ratio curve, often small or poorly fitted; inconclusive = mostly compound fluorescence or quenching in the first reads; inactive = flat curves in all reads;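 also: potency is read from the fitted curve at half-maximal effect; 0% = DMSO wells and 100% = buffer wells lacking importin beta; nearly all actives have a fitted effect of over 15% in size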
#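 FRET biosensor Rango (snurportin 1 IBB between N-terminal EYFP and C-terminal Cerulean), 50 nM in PBS/1 mM DTT/0.02% Tween-20/0.1% BSA, preincubated 5 min RT with compound; 0.125 microM importin beta added, 45 min RT, CFP/YFP FRET ratio read.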
# Starred values were filed as active, the others as inactive; ? = inconclusive; . = not tested or not shown; & = joins results of further samples.
Rango dissoc inh	Rango complex inh	miR-21 reporter	GLA inh pH 4.5	mol
-3.7%	1.0%	.	.	Cc1cc(C)c(NC(=O)CNC(=O)COC(=O)CN2C(=O)NC3(CCCC3)C2=O)c(C)c1
-9.6%	?	-5.8%	.	COc1cc(-c2nc3cnccn3c2NC(C)(C)CC(C)(C)C)ccc1O
-16.8%	-0.4%	-0.2%	-1.7	CC(C)(C)OC(=O)NC(CO)c1cn([C@@H](Cc2cc3ccccc3[nH]2)C(=O)N2CCN(C(=O)OC(C)(C)C)CC2)nn1 (some centres not stated)
?	-3.6%	0.4%	-14.9	CC1=CCC(C(=O)O)C(C(=O)Nc2cccnc2)C1 (configuration not stated)
5.6%	2.1%	.	.	COc1ccc(C(=O)C=Cc2cccs2)c(O)c1
-8.0%	-0.6%	-1.6%&7.2%	.	Cc1ccc(N2CCN(S(=O)(=O)c3ccc(-n4cnnn4)cc3)CC2)c(C)c1
-19.4%	1.4%	6.6%	1.2	Cc1cccc(C)c1NC(=S)NCCSc1ccc(Cl)cc1
5.2%	1.5%	-9.8%	4.6	C=CCSc1nccc(-c2cc(Cl)sc2Cl)n1
-1.4%	1.4%	-6.6%	5.5	COc1cccc(CNc2ccc(N3CCC(C)CC3)cc2)c1OC
0.6%	6.6%	21.4%	6.8	COc1ccc(OC)c(C2C3=C(COC3=O)Nc3cc4c(cc32)OCO4)c1 (configuration not stated)
-1.0%	-0.1%	.	.	COC(=O)[C@@H](CC(C)C)NS(=O)(=O)N(Cc1ccccc1)[C@@H](CC(C)C)C(=O)OC
14.9%	-0.8%	-33.4%	-0.5	COc1ccc(C(=O)NCC2OCCc3ccccc32)cc1 (configuration not stated)
2.2%	2.4%	-4.4%	0.7	OCc1ccccc1NC(=S)Nc1cccnc1
12.0%	-2.1%	-30.6%	3.7	Cc1ccc(C)c(NC(=O)c2nc(Cl)ccc2Cl)c1
?	?	-8.2%	7.4	CC(C)Cn1c(N)c(C(=O)NCCN2CCOCC2)c2nc3ccccc3nc21
-6.1%	-0.3%	.	.	Cc1cc(C(=O)COc2ccccc2Cl)c(C)n1C1CC1
-2.0%	-1.8%	-9.7%	-4.4	CCSc1nnc(NC(=O)Nc2cccc(C)c2)s1
1.1%	-2.5%	-1.5%	-26.0	O=c1oc2ccccc2n1Cc1ccccc1
-5.3%	5.5%	-25.0%	5.5	O=C(NCc1cccc(Cl)c1)c1ccc2c(c1)SC1=NS(=O)(=O)CCN12
-15.8%	3.1%	-3.6%	-7.3	O=C(O)c1ccc2c(c1)N(Cc1ccccc1)C(=O)c1ccccc1S2
24.3%	4.5%	-2.7%	3.3	CC(C)(C)n1ncc2c(=O)n(CC(=O)Nc3ccc(Cl)cc3)cnc21
-3.7%	0.0%	.	.	CCC(C(=O)OCC(=O)c1ccc(OC)cc1OC)c1ccccc1 (configuration not stated)
41.1µM*	?	3.0%	.	CCC(=O)Nc1sc2c(c1C(=O)OC)CCN(Cc1ccccc1)C2
-29.2%	1.4%	.	.	COc1ccc(CC(=O)NCCS(=O)(=O)N2CCN(c3ccccc3)CC2)cc1OC
-11.1%	0.3%	-10.7%	4.5	Cc1cc(C(F)(F)F)nc(NCc2cccnc2)n1

# Quoted at random: four records from the list.
Rango dissoc inh	Rango complex inh	miR-21 reporter	GLA inh pH 4.5	mol
-9.6%	?	-5.8%	.	COc1cc(-c2nc3cnccn3c2NC(C)(C)CC(C)(C)C)ccc1O
-29.2%	1.4%	.	.	COc1ccc(CC(=O)NCCS(=O)(=O)N2CCN(c3ccccc3)CC2)cc1OC
-15.8%	3.1%	-3.6%	-7.3	O=C(O)c1ccc2c(c1)N(Cc1ccccc1)C(=O)c1ccccc1S2
-1.4%	1.4%	-6.6%	5.5	COc1cccc(CNc2ccc(N3CCC(C)CC3)cc2)c1OC

# Next compounds
Rango dissoc inh	Rango complex inh	miR-21 reporter	GLA inh pH 4.5	mol
-3.1%	-4.3%	0.5%	.	CCN(CC)c1nc2c(c(=O)[nH]c(=O)n2C)n1Cc1ccccc1Cl
?	3.8%	.	.	O=C(COc1ccc(F)cc1Cl)Nc1cccc(S(=O)(=O)N2CCCC2)c1
-0.1%	-0.7%	10.3%	-3.1	COCCn1c(C)cc(C(=O)COC(=O)c2n[nH]c3ccccc23)c1C
?	?	0.7%	-4.6	COC(=O)c1cc(NC(=O)c2ccccc2)c(=O)oc1/C=C/Nc1ccc(Oc2ccccc2)cc1
0.7%	-0.8%	6.2%	-5.2	COC(=O)/C=C1\SC(N2CCOCC2)=C(c2ccc(OC)cc2)C1=O
1.5%	-1.6%	-1.4%	-1.1	O=C(O)c1ccn(Cn2cnc3ccccc32)n1
.	.	-34.3%	2.0	O=C(N1CCCC1)N1CCN(c2ncnc3c(-c4ccc(Cl)cc4)nsc23)CC1
-3.3%	-0.4%	6.1%	-16.4	Cc1ccc2nc(SCC(=O)Nc3cc(C(C)(C)C)nn3-c3ccccc3)[nH]c2c1
?	?	-49.5%	-6.6	CC(=Nc1cccc(C)c1)c1sc2ccccc2c1O
-24.7%	?	-1.8%	-0.3	COc1ccccc1NC(=S)NCC1CCC(CNC(=S)Nc2ccccc2OC)CC1 (configuration not stated)
-12.4%	?	.	.	CN1C[C@@H]2[C@@H]3C(=O)N(Cc4ccccc4)C(=O)[C@@H]3[C@](Cc3ccccc3)(C1=O)N2C(=O)c1ccc(Br)cc1
-5.5%	0.3%	7.8%	10.3	C=CCNC(=S)N/N=C(\C)c1cccc(NC(C)=O)c1
-10.5%	0.9%	-0.1%	0.0	CC(=O)OC(C(=O)NC1CCCCC1)c1cccc(C)c1 (configuration not stated)
17.1%	-4.7%	-51.3%	1.0	CC(=O)c1cccc(NC(=S)NC(=O)CC(C)(C)C)c1
?	?	-0.6%	2.1	Cc1cc(N=Cc2c(O)n(-c3cccc(Cl)c3)c(=O)c3ccccc23)no1
1.6%	6.0%	-87.8%	4.0	COc1ccc(NC(=O)CSc2ccccc2)c([N+](=O)[O-])c1
?	?	-30.1%	0.6	CC1CCCCC1NC(=O)COC(=O)c1c2c(nc3ccccc13)/C(=C/c1ccco1)CC2 (configuration not stated)
-3.5%	25.9µM*	2.1%	.	CC(C)Oc1ccc(C(=O)OC(C)C(=O)NC2CCCCC2C)cc1 (configuration not stated)
-4.4%	-3.7%	7.3%	-6.1	O=C1CC(c2ccco2)CC2=C1C=Nc1ccccc1N2 (configuration not stated)
-3.7%	-2.2%	-0.5%	-11.5	Cc1cc(/C=C(\C#N)C(=O)NCc2cccs2)c(C)n1-c1ccc([N+](=O)[O-])cc1
-0.7%	0.6%	-5.2%	-2.0	COc1ccc(C2=NO[C@@H]3C(=O)N(c4cccc(C)c4C)C(=O)[C@H]23)cc1OC
-17.6%	-4.0%	.	.	O=C(NCC(c1cccs1)N1CCOCC1)c1ccc(Cl)nc1 (configuration not stated)
7.4%	-0.1%	0.1%	-3.1	O=C(CCS(=O)(=O)c1ccc(Cl)cc1)OCC(=O)N1CCCCC1
-12.2%	-0.4%	1.8%	.	COc1ccc(-n2nc(C(=O)NCC(=O)N3CCCC3)c3ccccc3c2=O)cc1Cl
7.4%	2.7%	3.9%	6.1	CC1CN(C(=O)COC(=O)c2c(Cl)cccc2Cl)CC(C)O1 (configuration not stated)
0.6%	0.8%	-26.0%	-7.5	O=C(/C=C/c1cc2ccccc2o1)c1ccccc1O
-4.5%	0.2%	-3.8%	-2.1	CC(C)CCNC(=O)Cn1c2c(c(-c3ccccc3Cl)cc1=O)CCC2
2.1%	0.1%	-4.1%	.	COc1ccccc1NC(=O)CN1CCN(C(=O)C2CCCO2)CC1 (configuration not stated)
-6.1%	0.8%	-5.7%	7.6	CCC1(C)Cc2c(sc3nc(SC)nc(N)c23)CO1 (configuration not stated)
15.0%	10.8%	-3.2%	-7.5	Cc1cccc(C(=O)NCCc2nnc(SCC(=O)Nc3nc(C)cs3)n2C)c1
-0.4%	-0.2%	5.9%	.	CC(=O)c1ccc(S(=O)(=O)NCCc2csc(-c3cccnc3)n2)cc1
-1.8%	-0.7%	-17.6%	-1.8	O=C(NCCN1CCCC1)c1ccc(Cn2c(=S)[nH]c3ccc(Br)cc3c2=O)cc1
11.0%	-0.9%	-10.7%	.	CCC1CCc2c(sc(NC(=O)c3cnccn3)c2C(N)=O)C1 (configuration not stated)
14.9%	-0.2%	.	.	CN(CC(=O)Nc1cccc(F)c1)C(=O)c1ccc(-n2cncn2)c([N+](=O)[O-])c1
-2.4%	-1.3%	.	.	Cc1ccnc(NC(c2ccccc2)c2ccc3cccnc3c2O)c1 (configuration not stated)
9.2%	-3.0%	-7.1%	2.8	Cc1oc(-c2ccccc2Cl)nc1CN1CCCN(C(=O)c2ccco2)CC1
6.4%	-1.6%	-0.3%	2.2	COc1ccc(/C=N/n2cncn2)cc1Cn1nc(C)c([N+](=O)[O-])c1C
0.3%	-0.1%	-18.4%	-12.3	Cc1[nH]c2ccccc2c1N=Nc1ccccc1C(=O)O
0.2%	0.5%	.	.	Cn1c(=O)c2c(nc3n2CC(O)CN3c2ccccc2)n(C)c1=O (configuration not stated)
6.4%	-0.1%	-14.2%	.	COc1ccc(-c2nn(-c3ccccc3)cc2C(=O)Nc2ccc(C(=O)O)cc2)cc1OC
-18.1%	-2.1%	-26.3%	-12.6	COc1cc(NC(=O)C/C(C)=N/NC(=O)c2cccc(O)c2)c(OC)cc1Cl
-5.3%	4.1%	-24.3%	-2.0	CN(C)CCCN(C(=O)c1ccco1)c1nc2ccc(Cl)cc2s1
-1.9%	1.7%	.	.	O=C(CN1C(=O)NC2(CCCC2)C1=O)OCc1ccc(Br)cc1
10.9%	0.0%	0.0%	.	CCOC(=O)c1c(CN2CCN(CC#N)CC2)n(C)c2cc(Br)c(OC)cc12
-6.7%	-0.5%	26.2%	-19.5	COc1cccc(-c2nn(C)c3sc(C(=O)N4CCN(c5ccccc5)CC4)cc23)c1
-1.4%	-6.0%	-1.2%	3.9	CNC(=O)Cc1nc2ccccc2n1CC(=O)Nc1cc(C)cc(C)c1
17.7%	3.5%	-1.0%	.	O=C(CC(CC(=O)c1ccccc1)c1ccccc1)c1ccccc1
2.4%	2.3%	.	.	CC(C)(O)c1cc2ccc(C#Cc3ccsc3)cc2c(=O)o1
-11.7%	0.8%	-3.8%	.	CCOC(=O)c1c(C)[nH]c(C)c1S(=O)(=O)NCc1ccc(OCC)cc1
-6.6%	-2.3%	0.9%	-3.7	Cc1ccc(SCc2[nH]nc3c2C2(CCSCC2)C(C#N)=C(N)O3)cc1

# Remaining list, next part
Rango dissoc inh	Rango complex inh	miR-21 reporter	GLA inh pH 4.5	mol
2.5%	0.7%	-1.5%	-8.2	CCN(CC)S(=O)(=O)c1cccc(NC(=O)CSc2nnc(N)s2)c1
33.5%	-3.0%	-0.1%	-5.3	O=C(c1ccccc1)N1CCCC(C(=O)N2CCCCCC2)C1 (configuration not stated)
-21.0%	-2.7%	0.2%	.	O=C(CCC(=O)N1CCSc2ccccc21)NCc1ccc(Cl)cc1
-17.9%	3.9%	.	.	CC1CCCCC1NC(=O)CNC(=O)c1ccco1 (configuration not stated)
-5.0%	-1.2%	-13.8%	-7.8	COc1ccc(/C=C/C(=O)Nc2c(C(=O)O)[nH]c3ccccc23)cc1OC
.	.	28.6%	0.1	Clc1ccc2[nH]c3c(NCC4CCCO4)ncnc3c2c1 (configuration not stated)
-10.4%	-2.9%	-7.6%	0.0	CCCCC(CCC(=O)O)(C(=O)OCC)c1csc(Nc2ccccc2)n1 (configuration not stated)
-9.8%	-3.6%	-6.0%	-4.8	Cc1noc(C)c1S(=O)(=O)N1CCCCC1
8.4%	6.3%	.	.	COc1ccc(C(CNC(=O)c2ccc(S(=O)(=O)Nc3ccccc3OC)cc2)N2CCCC2)cc1 (configuration not stated)
-1.0%	1.7%	.	.	O=C1NC[C@H](Cc2ccccc2)N(C[C@H]2CCCN2C[C@H](Cc2ccccc2)N2C[C@H](Cc3ccccc3)N(CC3CCCCCC3)C(=O)C2=O)C1=O
10.3%	3.4%	-8.8%	.	O=C(CNS(=O)(=O)c1c(Cl)cccc1Cl)N1CCCCCC1
0.7%	-0.4%	0.5%	1.2	CCCN1C(=O)C(O)(C/C(C)=N/O)c2ccccc21 (configuration not stated)

# Screening data deposited in PubChem by National Center for Advancing Translational Sciences (NCATS).

# The list is partial; rates above refer to the full screens.
